Autofluor counter – compound fluorescence in toxin protease inhibitor counterscreen | compound autofluorescence counterscreen, microsphere flow cytometry; active compounds read high | 3.1% of 360,000 active | fluorescence intensity (concentration not given with the values) | AID 624483;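 active means at least 3 SD above the mean of all compounds, about 16000 in these data; inconclusive means too few beads counted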;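 further: 100 nL of 1 mM stock went into each well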
PrP 5UTR inh – suppresses PrP 5' UTR mRNA reporter expression | cell-based PrP 5' UTR mRNA reporter, plate reader | inhibition, % (test concentration not listed) | 0.35% of 340,000 active;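 active means every replicate at 50% or more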;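 further: 0 = median of the neutral control wells; tested in H4 reporter cells; numbers are from one replicate; inactives centre near -14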
ugtP null kill – kills S. aureus RN4220 lacking UgtP | S. aureus RN4220 ugtP deletion, OD600 growth, 16 h; some inactives read as strong as hits | 0.54% of 330,000 active | AID 1259309 | growth inhibition, % (test concentration not listed);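 active means z-score under -3 and OD600 up to 0.15 on both plates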;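 further: plate controls were untreated wells for no effect and antibiotic for full effect; wells of about 80 µL received 100 nL stock; the first replicate is given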
BJeLR viability – BJeLR cell viability loss | BJeLR (HRASV12) viability, CellTiter-Glo ATP luminescence, 48 h; reference of the scale not given here | inhibition, % (concentration not given with the values) | 0.17% of 300,000 active | AID 1554;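 active means replicate mean above 50%; inconclusive means above 50% but judged a plate artefact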;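 further: 50 nL library stock added to about 25 µL; numbers are from one replicate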
RN4220 kill – S. aureus RN4220 growth inhibition. inhibition, % (test concentration not listed). 0.33% of 330,000 active. OD600, 16 h;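 active means z-score of -3 or lower and OD600 up to 0.18 on both plates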;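 further: plate controls were untreated cells for no effect and reference antibiotic for full effect; stock transfer was 100 nL into about 80 µL; one replicate is shown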
Mtb hypoxia inh – Mtb hypoxia fluorescent reporter inhibition. M. tuberculosis hypoxia-regulated fluorescent reporter, fluorescence. 0.1% of 300,000 active. fluorescence inhibition, % (no concentration beside the values);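 active means 35 to 45% if threefold the growth effect, above 45% if 1.5-fold the growth effect; inactive means the rest, general growth blockers included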;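 further: wells of about 50 µL received 100 nL stock; 0% = vehicle wells and 100% = reference inhibitor wells; whole bacteria with a GFP reporter of the hypoxia response; strong numbers were not always called active; many hits fall short of the cut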
Mtb hypoxia inh growth – further read-out of Mtb hypoxia inh, marked with its call; growth inhibition, %; measured here: M. tuberculosis growth (absorbance);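 0% = vehicle and 100% = reference antibiotic; read after six days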
The depositor's hits bear a star; ? = inconclusive; / = no result given.

SMILES	Autofluor counter	PrP 5UTR inh	ugtP null kill	BJeLR viability	RN4220 kill	Mtb hypoxia inh	Mtb hypoxia inh growth
CCOC(=O)CN1CC23C=CC(O2)C(C(=O)NCCc2ccccc2)C3C1=O (stereo unspecified)	6405	3	4	-3	2.5	/	/
Cc1ccc(Nc2cc(C)nc(NCc3ccccc3)n2)cc1	2133	-13	-26	20	-18	-14	10
O=C(N/C(=C/c1cccnc1)C(=O)N1CCOCC1)c1ccccc1Br	2244	-12	6	-2	1.5	14	6
COc1cc(C(=O)NNC(=O)COc2ccc(Cl)cc2)ccc1OCC(=O)N1CCOCC1	4003	-11	-8	/	2.4	-15	1
O=C(c1ccco1)N1CCN(C(=O)C2CCN(S(=O)(=O)Cc3ccccc3)CC2)CC1	4395	-15	0	-6	1.2	6	11
Cc1ccc(NC(=O)CN2C(=O)NC(C)(c3ccc4c(c3)OCO4)C2=O)cc1 (stereo unspecified)	3559	-18	-1	/	-2.1	-8	5
C=CCN(CC(=O)NCc1ccccc1)C(=O)c1csnn1	24034*	21	0	-5	-0.4	6	4
O=C(NCc1ccccc1)C1CCCN(S(=O)(=O)c2ccc(Br)cc2)C1 (stereo unspecified)	5813	3	0	5	-3.0	-5	3
Cc1cccc(N(C(=O)Cn2nnc(-c3ccccc3F)n2)C(C(=O)NC(C)(C)C)c2ccncc2)c1 (stereo unspecified)	4239	-22	0	-12	3.8	5	-7
Cc1ccc2[nH]c(C)c(CCN(Cc3cccnc3)C(=S)NC(C)(C)C)c2c1	3747	-24	-14	-2	8.7	11	7
NC1=NC(=O)/C(=C/c2cn(CCC(=O)O)nc2-c2ccc(Cl)cc2)S1	2037	-4	2	6	4.8	7	9
CN(Cc1cnn(Cc2ccccc2)c1)C(=O)c1cccc(S(=O)(=O)N2CCOCC2)c1	6201	-10	-1	/	4.8	4	4
COCCNCC(O)CON=C1c2ccccc2-c2ccccc21 (stereo unspecified)	3413	-19	3	5	4.4	19	3
O=C(NC(c1ccccc1)C(O)c1ccccc1)C1CCCN1C(=O)OCc1ccccc1 (stereo unspecified)	/	/	10	/	9.7	6	0
COc1ccccc1NC(=O)CN1CCN(C(=O)c2ccco2)CC1	2399	-11	1	-11	3.0	12	13
CCOC(=O)C1=C(CC)OC(N)=C(C#N)C1c1ccc(OC)cc1OC (stereo unspecified)	19947*	-8	-2	-3	0.7	-2	5
COc1ccc(OCc2nnc(SC3CCOC3=O)n2-c2ccccc2)cc1 (stereo unspecified)	10284	-20	3	1	4.5	4	7
O=c1ccc(-c2ccccc2)nn1Cc1ccc(F)cc1Cl	3852	-6	-17	-1	-4.3	-4	5
CC(C)=C1SC(N2CCN(c3cccc(Cl)c3)CC2)=NC1=O	2555	-21	-15	-11	6.6	2	7
CC(=O)Nc1cccc(C(=O)OC(C)C(=O)NC2CCCc3ccccc32)c1 (stereo unspecified)	6620	-4	4	1	3.5	6	2
CCc1ccc(OCc2nnc(SCC(=O)NC3CCCCC3)o2)cc1	3291	-6	6	1	-2.2	-10	-3
Cc1cccc(C(=O)Nc2ccc3c(c2)C(=O)NC3=O)c1	5666	-22	15	10	4.6	8	1
N#CCOC(=O)c1c2c(nc3ccccc13)CCC2	4466	-10	9	5	8.2	24	19
COc1ccc2[nH]c(C(=O)O)c(CCNC(=O)/C=C/c3ccc(O)c(OC)c3)c2c1	3160	-21	7	12	-2.6	8	0
NC1=NC[C@@H](Cc2ccc(O)cc2)N1CCc1cccc2ccccc12	3774	29	/	-3	/	/	/

Reprinted at random: two entries already listed.
SMILES	Autofluor counter	PrP 5UTR inh	ugtP null kill	BJeLR viability	RN4220 kill	Mtb hypoxia inh	Mtb hypoxia inh growth
CCOC(=O)C1=C(CC)OC(N)=C(C#N)C1c1ccc(OC)cc1OC (stereo unspecified)	19947*	-8	-2	-3	0.7	-2	5
Cc1cccc(C(=O)Nc2ccc3c(c2)C(=O)NC3=O)c1	5666	-22	15	10	4.6	8	1

Record cards (already shown):
Listed for `CN(Cc1cnn(Cc2ccccc2)c1)C(=O)c1cccc(S(=O)(=O)N2CCOCC2)c1` = Autofluor counter = 6201; PrP 5UTR inh = -10; ugtP null kill = -1; BJeLR viability = /; RN4220 kill = 4.8; Mtb hypoxia inh = 4; Mtb hypoxia inh growth = 4
Listed for `COc1ccc2[nH]c(C(=O)O)c(CCNC(=O)/C=C/c3ccc(O)c(OC)c3)c2c1` = Autofluor counter = 3160; PrP 5UTR inh = -21; ugtP null kill = 7; BJeLR viability = 12; RN4220 kill = -2.6; Mtb hypoxia inh = 8; Mtb hypoxia inh growth = 0

4 entries from above, as labelled records:
N#CCOC(=O)c1c2c(nc3ccccc13)CCC2
  Autofluor counter: 4466	PrP 5UTR inh: -10	ugtP null kill: 9	BJeLR viability: 5	RN4220 kill: 8.2	Mtb hypoxia inh: 24	Mtb hypoxia inh growth: 19

Cc1ccc(NC(=O)CN2C(=O)NC(C)(c3ccc4c(c3)OCO4)C2=O)cc1 (stereo unspecified)
  Autofluor counter: 3559	PrP 5UTR inh: -18	ugtP null kill: -1	BJeLR viability: /	RN4220 kill: -2.1	Mtb hypoxia inh: -8	Mtb hypoxia inh growth: 5

NC1=NC[C@@H](Cc2ccc(O)cc2)N1CCc1cccc2ccccc12
  Autofluor counter: 3774	PrP 5UTR inh: 29	ugtP null kill: /	BJeLR viability: -3	RN4220 kill: /	Mtb hypoxia inh: /	Mtb hypoxia inh growth: /

O=C(NC(c1ccccc1)C(O)c1ccccc1)C1CCCN1C(=O)OCc1ccccc1 (stereo unspecified)
  Autofluor counter: /	PrP 5UTR inh: /	ugtP null kill: 10	BJeLR viability: /	RN4220 kill: 9.7	Mtb hypoxia inh: 6	Mtb hypoxia inh growth: 0

The listing picks up, repeating the 2 entries before the break.
SMILES	Autofluor counter	PrP 5UTR inh	ugtP null kill	BJeLR viability	RN4220 kill	Mtb hypoxia inh	Mtb hypoxia inh growth
COc1ccc2[nH]c(C(=O)O)c(CCNC(=O)/C=C/c3ccc(O)c(OC)c3)c2c1	3160	-21	7	12	-2.6	8	0
NC1=NC[C@@H](Cc2ccc(O)cc2)N1CCc1cccc2ccccc12	3774	29	/	-3	/	/	/
CCCCOc1ccc(Cc2n[nH]c(=S)n2N)cc1	9095	-32	-4	-1	-1.0	1	10
CCC1=Nc2cc(C(=O)O)ccc2Sc2ccc(Cl)cc21	5734	-11	8	1	7.8	7	1
CCOC(=O)c1cc2c(ccn2C)n1CC(=O)N1CCN(c2ccccc2)CC1	9463	-9	-1	-10	-2.0	-1	4
CCCCN1C(=O)CC(Sc2ncccc2C(=O)O)C1=O (stereo unspecified)	3278	-5	9	2	1.8	1	-3
CC(C)OC(=O)c1c(F)c(F)c(N2CCOCC2)c(F)c1F	12726	-27	13	0	7.9	3	6
CN(C)NC(=S)NC1(C)CCS(=O)(=O)C1 (stereo unspecified)	?	-25	6	-4	2.0	13	-2
C=CCOc1ccc(CNc2ccc(NC(=O)CCC)cc2)cc1OCC	2136	3	3	-9	3.5	-2	4
CCOC(=O)C1=C(C)N=c2sc(=Cc3ccc(OCC(=O)O)cc3)c(=O)n2C1c1ccc(OC(C)C)cc1 (stereo unspecified)	/	/	42	/	29	9	4
COc1cccc(C(=O)NCCS(=O)(=O)N2CCN(C(=O)c3ccco3)CC2)c1	?	-10	6	7	2.6	5	2
COc1ccccc1-n1cnc2cc(C(=O)NCC3CCCO3)ccc21 (stereo unspecified)	2449	-19	7	-6	3.9	/	/
O=C(Cc1ccc(Cl)cc1)Nc1cccc(-c2nnc(-c3ccco3)o2)c1	4282	-12	6	8	11	0	0
c1ccc(CN=C2NN=C(c3cc4ccccc4o3)CS2)cc1	2226	-4	4	-1	-2.4	1	4
COc1ccc(OC)c(C(=O)Nc2c(O)ccc3ccccc23)c1	3257	-2	-8	1	5.8	6	8
c1ccc(N2CCN(c3nnc(Cc4cccnc4)c4ccccc34)CC2)nc1	7857	-9	7	-3	-0.8	-5	22
CC(=O)Nc1ccc(C(=O)OCC(=O)Nc2ccc(Cl)cc2C(=O)c2ccccc2)cc1	2245	-9	-3	-7	-4.3	9	10
CC1=C(C)C(OCCCl)N(c2cc(O)c(Cl)cc2F)C1=O (stereo unspecified)	/	-23	-2	-6	4.9	11	7
CN(C(=O)CSc1nc2ccc(Br)cc2c(=O)n1Cc1ccco1)C1CCS(=O)(=O)C1 (stereo unspecified)	4775	-8	-1	-6	5.6	12	0
CN1CCN(C(=O)c2cc(COc3ccccc3)on2)[C@@H](c2ccccc2)C1	6207	-57	-1	-1	0.7	11	19
CCOC(=O)C1=C(COC(=O)CNC(=O)c2cccc(C)c2)NC(=O)NC1C (stereo unspecified)	5277	-9	7	-12	2.6	-4	-8
CC1SCC(=O)N(CC(=O)Nc2ccc3c(c2)OCO3)C1=O (stereo unspecified)	2625	-24	8	3	3.3	5	-6
CCCCc1ccc(NC(=S)Nc2cccnc2)cc1	3436	-34	-2	7	-1.5	/	/
Cc1ccc(NC(=O)OCc2cn(-c3ccc(Cl)cc3)nn2)cc1	11185	-23	26	11	13	6	3
O=C(CSc1ncnc2ccccc12)Nc1ccc2c(c1)OCO2	5333	-59	12	2	4.6	3	8
CNc1nc(Cl)c(SC)c(NCc2ccc(F)cc2)n1	3855	-13	0	-7	1.5	-2	8
CCCCn1c2nc3ccccc3nc2c2c(=O)n(CC(C)C)cnc21	4882	-14	-15	/	2.2	12	0

Following part.
SMILES	Autofluor counter	PrP 5UTR inh	ugtP null kill	BJeLR viability	RN4220 kill	Mtb hypoxia inh	Mtb hypoxia inh growth
CCOc1ccc(C(=O)N2CCc3cc(OC)c(OC)cc3C2)cc1OCC	3748	-7	-5	-3	1.4	1	7
CCNc1nc(CC)nc2c1oc1ccccc12	21864*	-24	7	-4	6.5	8	11
COc1ccc(-c2csc(NC(=O)C3CCN(c4ncnc5sc(C)c(C)c45)CC3)n2)cc1OC	4597	2	-11	7	17	-2	-3
O=c1[nH]c(=O)n(Cc2ccco2)c2c1C(C(F)(F)F)(C(F)(F)F)N=C(CCc1ccccc1)N2	8965	/	-8	4	2.9	-5	8
CCc1ccc2c(CN3CCN(Cc4ccccc4)CC3)cc(=O)oc2c1	3157	-24	16	-2	0.9	11	-2
O=CN(Cc1nc2ccccc2[nH]1)c1ccc(C(=O)O)cc1	3932	-21	1	/	5.7	0	8
Cc1ccc(S(=O)(=O)NC(=O)Nc2ccccc2)cc1	4093	3	15	0	2.1	3	-2
O=C(O)C1=C[C@H](c2csc3ccccc23)C[C@H](OCCCCO)O1	3476	-18	/	-6	/	/	/
Cc1ccc(N2CC(C(=O)Nc3ccc(S(=O)(=O)Nc4nccs4)cc3)CC2=O)cc1 (stereo unspecified)	2539	-23	8	-3	6.5	10	29
CC(C)n1cnc2c(NCc3ccc(S(N)(=O)=O)cc3)nc(NCc3ccc(S(N)(=O)=O)cc3)nc21	4082	-5	8	3	7.7	13	4
Cc1nnc(C)n1/N=C/c1cccn1C	2219	-13	/	1	/	/	/
COc1ccc(C(=O)Nc2ccc(C)cn2)cc1S(=O)(=O)N1CCCc2ccccc21	6516	-13	-2	-15	4.8	16	5
COc1ccc(C2C3C(=O)N(C(C)(C)C)C(=O)C3[C@]3(Cc4ccccc4)C(=O)N(c4cccc(Cl)c4)C(=O)N23)cc1 (stereo partly specified)	/	/	12	/	11	5	2
Clc1ccccc1/C=C/C=N/Nc1nc(N2CCOCC2)nc(N2CCOCC2)n1	4371	-12	/	-6	/	/	/
